Ba CapD inh = inhibitors of Bacillus anthracis CapD enzyme. z-score (test concentration not listed). purified CapD enzyme, fluorescence intensity read-out; active compounds read low; some hits fall short of the stated cut. actives 0.23% (n = 140,000). AID 492967;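 active = z-score under -4 in either of two replicates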;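 also: stock transfer was 100 nL into about 40 µL; score is relative to mean and spread of the plate; one replicate is shown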
AID504770 = E. coli YBA685 growth inhibition, screen for V. cholerae RctB inhibitors; AID 504770; E. coli YBA685 rctB-dependent plasmid, OD600 growth, 3 h; active compounds read low; actives 0.27% (n = 130,000); z-score (test concentration not listed);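 active = z-score under -2 on both plates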;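 also: wells of about 30 µL received 100 nL stock; score is relative to mean and SD of the test wells; the first replicate is given; strong numbers were not always called active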
Active calls of the source: *.

What do the screens show for `COc1cc(NC(=O)c2sc3nc(C)nc(N4CCCCC4)c3c2C)cc(OC)c1OC`?
Ba CapD inh: -0.47

How did Cc1cc(C(=O)CN2C(=O)NC(Cc3c[nH]c4ccccc34)C2=O)c(C)n1C (centres undefined) do in these assays?
AID504770: -0.5

What do the screens show for `COc1ccc(-n2c(C)cc(C(=O)COc3ccc(-n4cnnn4)cc3)c2C)cc1`?
AID504770: 0.9

What do the screens show for `O=C(OCCOc1ccc2ccccc2c1)N1CCN(CCCC(c2ccc(F)cc2)c2ccc(F)cc2)CC1`?
Ba CapD inh: 0.94

Results for COc1ccccc1C(=O)CC#N ?
Ba CapD inh: 2.6; AID504770: 1.8

Results for Cc1ccc(S(=O)(=O)NNC(=S)Nc2ccccc2)cc1 ?
Ba CapD inh: 0.94; AID504770: 2.3

What do the screens show for `O=C1c2ccccc2C(=O)N1CCCCSc1nnc(-c2ccc(OC(F)F)cc2)o1`?
AID504770: -1.2

How did CCN(Cc1ccncc1)Cc1c(O)ccc2ccccc12 do in these assays?
AID504770: -0.05

Results for O=S(=O)(c1ccc(Br)cc1)N1CCC(Cc2ccccc2)CC1 ?
Ba CapD inh: 0.075

Results for Cc1nn(-c2ccccc2)c(C)c1CN(C)CC(=O)Nc1ccccc1C#N ?
AID504770: -0.4

Results for COc1ccc(NC2CC(O)C(CO)O2)cc1 (centres undefined) ?
AID504770: 1.9

What do the screens show for `N#Cc1c(N)nc(SCC(=O)c2ccc(Br)cc2)c(C#N)c1-c1cccs1`?
Ba CapD inh: 0.27

Results for COC(=O)CNC(=O)c1ccncc1Br ?
Ba CapD inh: -0.28; AID504770: 0.1

Results for Cc1ccc(-c2ccc(=O)n(CC(=O)N3CC(C)CC(C)C3)n2)cc1 (centres undefined) ?
Ba CapD inh: 6.7; AID504770: 0.15

How did COc1ccc2ccc(OC)c(/C=c3\sc4n(c3=O)C(c3ccccc3OC)C(C(C)=O)=C(C)N=4)c2c1 (centres undefined) do in these assays?
Ba CapD inh: -0.04

Results for COc1ccc(CN(C)CCc2ccc(OC)c(OC)c2)cc1 ?
Ba CapD inh: -0.32; AID504770: 1.9

What do the screens show for `CC1(C)C2CCC1(C)C(NC(=O)CCC(=O)O)C2` (centres undefined)?
Ba CapD inh: 0.065; AID504770: 0.1

Results for O=C(Nc1nncs1)c1cc2c(s1)CCC2 ?
AID504770: -0.7

How did Cc1cc(NC(=O)COc2ccc3oc4ccccc4c3c2)no1 do in these assays?
AID504770: 0.3

How did COc1cccc(Nc2nc(C)c([N+](=O)[O-])c(Nc3cccc(OC)c3)n2)c1 do in these assays?
Ba CapD inh: -0.15

Results for COC(=O)C1C2c3ccccc3O[C@]1(C)N=c1s/c(=C/c3cccc(OC)c3)c(=O)n12 (some centres undefined) ?
Ba CapD inh: -0.12

Results for Cc1cccc(-n2nnnc2SCC(=O)N2CC(C)OC(C)C2)c1 (centres undefined) ?
AID504770: 2.3

How did O=C(NCc1ccco1)c1noc2c1CCc1ccccc1-2 do in these assays?
Ba CapD inh: -0.18; AID504770: 0.6

How did O=C(CCCCCNC(=O)OCc1ccccc1)NCc1ccccc1C(F)(F)F do in these assays?
Ba CapD inh: -0.45

What do the screens show for `O=C(OCCOCCN1CCN(C(c2ccccc2)c2ccc(Cl)cc2)CC1)N1CCN(C(c2ccccc2)c2ccc(Cl)cc2)CC1` (centres undefined)?
Ba CapD inh: -0.62

How did O=C(COC(=O)c1cc[n+]([O-])cc1)c1ccc2[nH]c(=O)[nH]c2c1 do in these assays?
AID504770: -0.3

What do the screens show for `CC(C)C(=O)N1CCN(c2ccc(NC(=O)c3ccccc3)cc2)CC1`?
AID504770: -0.45

Results for COc1ccc(C2C3=C(CC(c4ccco4)CC3=O)Nc3ncnn32)cc1 (centres undefined) ?
AID504770: -1.1

What do the screens show for `ClCc1csc(Nc2ccccc2)n1`?
Ba CapD inh: -0.15; AID504770: 0.8

What do the screens show for `CCN(CCCN)c1ccccc1`?
AID504770: -0.85

Three consecutive compounds from above, quoted:
What do the screens show for `CC(C)C(=O)N1CCN(c2ccc(NC(=O)c3ccccc3)cc2)CC1`?
AID504770: -0.45

Results for COc1ccc(C2C3=C(CC(c4ccco4)CC3=O)Nc3ncnn32)cc1 (centres undefined) ?
AID504770: -1.1

What do the screens show for `ClCc1csc(Nc2ccccc2)n1`?
Ba CapD inh: -0.15; AID504770: 0.8

The main list resumes, starting 3 compounds before the break.
Results for COc1ccc(C2C3=C(CC(c4ccco4)CC3=O)Nc3ncnn32)cc1 (centres undefined) ?
AID504770: -1.1

What do the screens show for `ClCc1csc(Nc2ccccc2)n1`?
Ba CapD inh: -0.15; AID504770: 0.8

What do the screens show for `CCN(CCCN)c1ccccc1`?
AID504770: -0.85

What do the screens show for `COC(=O)C12CC3CC(CC(N)(C3)C1)C2`?
Ba CapD inh: 0.36; AID504770: -0.55

Results for COc1ccccc1CN(C)C(=O)CSc1nc(C)c(C)n1C1CCCC1 ?
AID504770: -0.1

Results for N#CCS(=O)(=O)c1ccco1 ?
Ba CapD inh: 0.4; AID504770: 0.85

How did COc1ccc(-c2nnc(SCC(=O)c3ccccc3)o2)cc1 do in these assays?
Ba CapD inh: 0.16; AID504770: 1.8

Results for COc1ccc(S(=O)(=O)N(CC(=O)NCCSCc2ccc(C)cc2)c2ccc(C)cc2)cc1 ?
Ba CapD inh: -0.23

What do the screens show for `CCOC(=O)CSC1=C(C#N)C(c2ccc(OCc3ccccc3)cc2)CC(=O)N1` (centres undefined)?
Ba CapD inh: 0.2

What do the screens show for `CC(C)c1nc2cc3sc(C(C)C)nc3cc2s1`?
Ba CapD inh: -0.005; AID504770: -0.35

What do the screens show for `O=C(CN1C(=O)c2ccccc2C1=O)N1CCCCCC1`?
Ba CapD inh: 0.12; AID504770: 0.25

Results for COc1ccc(N2CCN(C(=O)CCCC(=O)c3ccccc3)CC2)cc1 ?
Ba CapD inh: -1.6; AID504770: 1

How did CC1CCC(C(C)C)C(OCC(O)CN2CCN(c3ccccc3)CC2)C1 (centres undefined) do in these assays?
Ba CapD inh: 0.045; AID504770: 1

Three entries out of the list, sorted by count of non-hydrogen atoms, highest first.
How did COc1ccc(-c2nnc(SCC(=O)c3ccccc3)o2)cc1 do in these assays?
Ba CapD inh: 0.16; AID504770: 1.8

What do the screens show for `O=C(CN1C(=O)c2ccccc2C1=O)N1CCCCCC1`?
Ba CapD inh: 0.12; AID504770: 0.25

What do the screens show for `CC(C)c1nc2cc3sc(C(C)C)nc3cc2s1`?
Ba CapD inh: -0.005; AID504770: -0.35

Following part
What do the screens show for `O=[N+]([O-])c1ccc(Nc2nc(OCC(F)(F)C(F)F)nc(OCC(F)(F)C(F)F)n2)cc1`?
Ba CapD inh: -0.99

Results for CCOc1ccc(C2C(C#N)=C(N)Oc3n[nH]c(-c4ccc5c(c4)OCO5)c32)cc1OCC (centres undefined) ?
Ba CapD inh: 0.32

Results for CC(=O)Nc1ccc(-n2nncc2-c2ccccc2)cc1 ?
Ba CapD inh: 0.65; AID504770: -0.05

How did C=CCc1ccccc1OCc1cccc(C(=O)O)c1 do in these assays?
Ba CapD inh: -1.1; AID504770: 1.4

How did CON(C)C(=O)c1cc2cccnc2nc1C(F)(F)F do in these assays?
Ba CapD inh: -0.43

How did O=C(NN1C(=O)C2C3C=CC(C3)C2C1=O)c1ccc2c(c1)OCO2 (centres undefined) do in these assays?
Ba CapD inh: 1.2

What do the screens show for `Clc1ccc2nc(-c3ccccc3)c(NCc3ccco3)n2c1`?
AID504770: 0.2

Results for Cc1ccccc1NC(=O)Nc1sc2nc3n(c(=O)c2c1C)CCC(C)CC3 (centres undefined) ?
Ba CapD inh: 2.3; AID504770: 0.4

What do the screens show for `C[n+]1c(CF)sc2ccccc21`?
Ba CapD inh: 0.11; AID504770: -0.85

Results for COc1ccccc1Nc1ccc(N)cc1 ?
Ba CapD inh: 0.15; AID504770: -0.25

What do the screens show for `CCOC(=O)N1CCN(C(=O)c2ccc3c(c2)N(CC)CCS3)CC1`?
Ba CapD inh: 13; AID504770: 0.95

What do the screens show for `CCOC(=O)c1oc2ccccc2c1NC(=O)COC(=O)CC1Sc2ccccc2NC1=O` (centres undefined)?
AID504770: 0.2

What do the screens show for `CCOC(=O)N1CCN(C(=O)c2cc3c(s2)-c2ccc(Cl)cc2S(=O)(=O)C3)CC1`?
Ba CapD inh: 2.4; AID504770: 1.1

How did Cc1onc(-c2ccccc2Cl)c1C(=O)NC(=S)N1CCOCC1 do in these assays?
Ba CapD inh: -0.095

What do the screens show for `CC(C)(C)c1cc(C(C)(C)C)c(O)c(S(N)(=O)=O)c1`?
Ba CapD inh: -0.15; AID504770: -1

What do the screens show for `CC1=C(C#N)C(c2sccc2C)C2=C(CCCC2=O)N1` (centres undefined)?
Ba CapD inh: 6.8; AID504770: 0

What do the screens show for `CC(C)c1ccc(NC(=O)c2ccccc2NC(=O)c2ccccc2)cc1`?
Ba CapD inh: 1.1

What do the screens show for `CCOC(=O)NC(=O)C(C#N)/C=N\OCCOc1cccc(C(F)(F)F)c1` (centres undefined)?
Ba CapD inh: -0.22

What do the screens show for `O=C(CSc1nnc2ccccn12)Nc1ccccc1Cl`?
AID504770: 1.9

What do the screens show for `Cc1ccc2nc(SCC(=O)c3ccc(Cl)s3)[nH]c2c1`?
Ba CapD inh: -0.16; AID504770: -0.1

Results for CN(C)C(=O)Oc1noc2cc(Cl)ccc12 ?
Ba CapD inh: -0.23

How did CCCCn1c(=O)nc2n(-c3ccc(C)cc3C)c3ccccc3cc-2c1=O do in these assays?
Ba CapD inh: 1.9

Results for N#Cc1ccc(C(=O)NCC(c2ccco2)N2CCCC2)cc1 (centres undefined) ?
AID504770: -0.6

How did O=C(NCc1ccc2c(c1)OCO2)c1cc(=O)c2ccccc2o1 do in these assays?
Ba CapD inh: 0.43; AID504770: 0.05

Results for Clc1cccc(Cl)c1COn1c(-c2ccccc2)nc2ccccc21 ?
Ba CapD inh: -0.65

How did Nc1c(C(=O)Nc2ccccc2)sc2nc3c(cc12)CCCCC3 do in these assays?
Ba CapD inh: -0.9; AID504770: 0.75

Results for COC(=O)c1ccc(N2C(=O)CSC2c2cc3c(cc2Br)OCO3)cc1 (centres undefined) ?
Ba CapD inh: -1.9

How did CC(=O)N[C@@H](C)C(=O)NCc1cccc(C(F)(F)F)c1 do in these assays?
AID504770: 0.05

What do the screens show for `Cc1ccc(NC(=O)CSc2nc3ccccc3c(=O)n2CC2COc3ccccc3O2)cc1` (centres undefined)?
Ba CapD inh: -0.005; AID504770: -0.7

What do the screens show for `CCC(C)OC(=O)c1ccc(-c2ccc(-c3ccc(C(=O)OC(C)CC)cc3)cc2)cc1` (centres undefined)?
Ba CapD inh: 1.5

What do the screens show for `O=c1oc(-c2ccccc2)nc2ccc(O)cc12`?
Ba CapD inh: -0.29; AID504770: 0.3

What do the screens show for `CC(O)CN(CC(C)O)C(=O)NCc1cc(C(F)(F)F)cc(C(F)(F)F)c1` (centres undefined)?
Ba CapD inh: -0.69

How did CCOC(=O)N1CCC(NC(=O)c2ccc(Cl)cc2)CC1 do in these assays?
Ba CapD inh: 0.015; AID504770: -0.2

What do the screens show for `CC(C)CNC(=O)CSc1ccc(S(=O)(=O)N2CCN(C)CC2)cn1`?
AID504770: -0.3

Results for O=C(NN1CCOCC1)c1ccc(=O)n(Cc2ccccc2)n1 ?
AID504770: -0.35

How did c1ccc2c(c1)COC(CN1CCCC1)OC2 do in these assays?
Ba CapD inh: -0.49; AID504770: 1.5

What do the screens show for `COC(=O)c1c(C)[nH]c(C(=O)C(C)N2CCc3ccccc3C2)c1C` (centres undefined)?
AID504770: -0.2

How did Cc1nn(C)cc1C(C(=O)NC1CCCCC1)N(CCc1ccccc1)C(=O)c1cnccn1 (centres undefined) do in these assays?
AID504770: -0.95

How did Nc1ncnc2cccc(F)c12 do in these assays?
Ba CapD inh: 1.2; AID504770: -1.1

How did Cc1cc2c(cc1C)n(C1CC(=O)C3OCC1O3)c(=S)n2Cc1ccccc1Cl (centres undefined) do in these assays?
Ba CapD inh: -0.43

How did O=C(COC(=O)C12CC3CC(CC(C3)C1)C2)Nc1ccc(Cl)cc1 do in these assays?
Ba CapD inh: -0.41; AID504770: 0

Results for NS(=O)(=O)c1ccc(NC(=S)N2CCC(Cc3ccccc3)CC2)cc1 ?
Ba CapD inh: -0.82; AID504770: 0.95

What do the screens show for `O=C(O)c1c(Nc2nnc(-c3ccncc3)s2)sc2c1CCCC2`?
Ba CapD inh: -0.86; AID504770: -0.55

Results for CCSCCOC(=O)C1=C(C)NC2=C(C(=O)CC(c3ccc(OC)cc3)C2)C1c1ccc2c(c1)OCO2 (centres undefined) ?
Ba CapD inh: 21

What do the screens show for `Cc1cc(C)n2nc(SCCCC(=O)N3CCOCC3)nc2n1`?
AID504770: 0.2

Results for Cc1ccc(C(=O)Nc2nc3ccc(S(N)(=O)=O)cc3s2)cc1C ?
Ba CapD inh: 3; AID504770: 0

What do the screens show for `O=C1C(=O)N(c2nccs2)C(c2ccc([N+](=O)[O-])cc2)/C1=C(/O)c1ccc(Cl)cc1` (centres undefined)?
Ba CapD inh: -0.52

Results for Cc1ccc(-c2nc(CS(=O)(=O)CC(=O)NC3CCCCCC3)c(C)o2)cc1 ?
Ba CapD inh: -0.035; AID504770: -0.2

Results for CC(=O)NC(=O)/C(C#N)=N\O ?
Ba CapD inh: 0.61; AID504770: 0.45

Results for CC(C)N1CCN(C(=O)c2ccc(F)cc2)CC1 ?
Ba CapD inh: -0.01; AID504770: 0.1

Results for CN(C)c1ccc(C2SCCN2C(=O)c2cc3cc(Br)ccc3oc2=O)cc1 (centres undefined) ?
Ba CapD inh: 0.07

Screening results: PubChem, ICCB-Longwood Screening Facility, Harvard Medical School

Not all compounds are listed; rates above refer to the full screens.
